Mtb growth: M. tuberculosis H37Rv growth inhibitors, H37Rv strain (AID 1626) | M. tuberculosis H37Rv growth inhibition; higher % means a stronger effect | actives 0.95% (n = 220,000) | inhibition, % at 10 µM; hits with a dose series show IC50 in µM;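 active = confirmed in a dose series; inconclusive = inhibition above 80% but not taken into the dose series; inactive = below 80% or under 30% at every dose of the series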;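 also: bacteria incubated seven days before Alamar blue readout; 0% = bacteria only wells and 100% = bacteria with antibiotic wells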
Arbovirus inh: arbovirus infection inhibition | arbovirus infection cell-based antiviral screen | inhibition, % at 10 µM | actives 0.37% (n = 200,000);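 active = inhibition from about 30%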;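 also: bluetongue infection of BSR cells; cell survival read as ATP light after 72 h; 0% = infected wells without compound and 100% = uninfected wells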
RecA splice inh: inhibitors of M. tuberculosis RecA intein splicing. cell-free RecA intein splicing, fluorescence. inhibition, %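 (about 9 µM by stock and volumes)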. actives 0.75% (n = 290,000). AID 2221; in the data active = inhibition above about 30%; inconclusive = no clear call, values can overlap the other calls;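 also: 0% = vehicle wells and 100% = reference inhibitor control wells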
Target sequence (P9WHJ3 whole entry, looked up, canonical isoform): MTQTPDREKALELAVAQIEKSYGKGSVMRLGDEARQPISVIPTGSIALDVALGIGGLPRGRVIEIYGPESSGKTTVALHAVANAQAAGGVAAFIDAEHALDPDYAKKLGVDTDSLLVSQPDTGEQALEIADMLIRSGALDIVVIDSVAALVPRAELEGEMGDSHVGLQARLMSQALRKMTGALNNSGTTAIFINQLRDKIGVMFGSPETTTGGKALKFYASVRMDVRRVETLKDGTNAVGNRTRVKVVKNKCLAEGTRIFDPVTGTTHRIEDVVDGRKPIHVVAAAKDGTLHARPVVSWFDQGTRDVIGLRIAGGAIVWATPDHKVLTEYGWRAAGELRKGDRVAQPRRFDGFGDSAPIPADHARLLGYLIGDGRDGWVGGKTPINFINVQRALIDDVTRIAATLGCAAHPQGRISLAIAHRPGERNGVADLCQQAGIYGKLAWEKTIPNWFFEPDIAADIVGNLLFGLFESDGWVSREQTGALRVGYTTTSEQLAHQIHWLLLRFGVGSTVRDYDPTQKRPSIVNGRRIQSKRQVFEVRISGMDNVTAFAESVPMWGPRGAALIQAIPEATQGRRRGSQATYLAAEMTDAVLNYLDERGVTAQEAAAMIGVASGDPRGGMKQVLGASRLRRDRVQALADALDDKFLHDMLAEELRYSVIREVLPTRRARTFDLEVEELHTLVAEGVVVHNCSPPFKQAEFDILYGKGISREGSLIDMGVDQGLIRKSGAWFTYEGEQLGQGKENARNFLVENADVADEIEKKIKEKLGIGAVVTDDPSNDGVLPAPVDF
Mtb betalactam: beta-lactam sensitization of Mtb H37Rv; M. tuberculosis H37Rv growth with meropenem, percent inhibition; hits of this screen are not shown here; inhibition, % at 25 µM; actives 0.27% (n = 330,000); AID 434955;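 active = about 74% or more and at least 40 points above the plate without the antibiotic, then above 30% in a dose series; inconclusive = first-round hits that could not be retested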;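 also: growth measured after seven days incubation then overnight dye step; 0% = bacteria only wells and 100% = bacteria with antibiotic; twin plates without the antibiotic show which effects depend on it; some results filed as inactive read as strong as hits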
YopH PTP inh: blocks Yersinia enterocolitica YopH tyrosine phosphatase; fluorescence Ex485/Em525; inhibition, %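 (about 10 µM by stock and volumes)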; actives 0.16% (n = 140,000); AID 898;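 active = inhibition of 50% or more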;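 also: controls were vehicle for no effect and minimum signal wells for full effect; inactives centre near -20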
Arbovirus inh repeat: second read-out of Arbovirus inh, no call of its own (marks repeat the call); inhibition, %; measured here: 10K subset replicate screen; many hits read low in the repeat;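 first of two repeat runs on a subset; 0% = infected and 100% = uninfected wells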
* hit, by the source's call; ? = inconclusive; · = no result given. An excerpt; the hit share may differ from the screen's.

SMILES	Mtb growth	Arbovirus inh	RecA splice inh	Mtb betalactam	YopH PTP inh	others
O=C(O)CCCC(=O)Nc1ccccc1Br	-5%	0	0.8	-4	-49	Arbovirus inh repeat=0
Cc1cccc(-n2c(CCc3ccccc3)nnc2SCC(=O)c2ccccc2)c1	11%	-25	13	9	4
CCn1c(SCC(=O)Nc2cc(OC)ccc2OC)nnc1C1CCCCC1	7%	6	-1.1	-11	-33
CCOC(=O)Nc1cccc(Cl)c1C	-10%	1	1.6	5	-9
Cc1cccc(CN2CCN(c3nc4nonc4nc3NC3CC3)CC2=O)c1	3%	2	-4.8	3	·
Cc1c(C(=O)NCc2ccco2)cccc1[N+](=O)[O-]	11%	-3	-0.3	5	-3
CC(=O)N1CCOc2ccc(S(=O)(=O)N3CCC(C(=O)Nc4cc(C)ccc4C)CC3)cc21	·	·	-6.6	2	·
Cc1ccc(CNC(=O)C2CCN(S(=O)(=O)c3cccs3)CC2)cc1	·	·	-0.3	-5	·
COc1cc(OC)cc(-c2nnc(NC(=O)Cc3ccc(F)cc3)o2)c1	·	·	-1.4	67	·
COCC(=O)N(C)C1(c2nnnn2CCOC(=O)Nc2ccc(Cl)cc2)CCCC1	-4%	10	0.2	-7	-40
COc1ccc(C2(CNC(=O)c3ccc(OC)c([N+](=O)[O-])c3)CCOCC2)cc1OC	-10%	0	-1.2	-5	-33
CCOC(=O)c1ccc(NC(=O)CSc2nnc(Cn3c(=O)sc4ccccc43)n2C)cc1	·	-3	-0.2	2	1	Arbovirus inh repeat=2
O=C(O)CCn1c(SCc2cc(=O)n3ccccc3n2)nc2ccsc2c1=O	-10%	6	·	3	·
O=C1NC(Cc2c[nH]c3ccccc23)C(=O)N1Cc1cccc2ccccc12 (stereo not given)	7%	8	0.0	9	-13
COc1ccccc1-c1c(C)nn2c(N3CCN(Cc4ccccc4)CC3)cc(C)nc12	23%	-23	7.2	55	7
COc1ccc(C(=O)Nc2c(C(C)(C)C)nn(C)c2C(C)(C)C)cc1	-7%	·	-1.3	-6	·
O=C(Nc1ccc(N2CCOCC2)cc1)c1cc2c(s1)CCCC2	-7%	-24	2.4	1	·
COc1ccccc1NS(=O)(=O)c1cccc(C(=O)N/N=C/c2ccc(NC(C)=O)cc2)c1	0%	-7	-0.6	-4	·
CCOC(=O)Nc1sc2c(c1C(=O)OCC)CCC2	-10%	6	3.5	7	-16
Cc1ccc(C)c(NC(=O)CCN2CC(C)CC(C)C2)c1 (stereo not given)	·	·	1.9	0	·

The last 6 records of the section above are carried over, then new ones follow:
SMILES	Mtb growth	Arbovirus inh	RecA splice inh	Mtb betalactam	YopH PTP inh	others
COc1ccccc1-c1c(C)nn2c(N3CCN(Cc4ccccc4)CC3)cc(C)nc12	23%	-23	7.2	55	7
COc1ccc(C(=O)Nc2c(C(C)(C)C)nn(C)c2C(C)(C)C)cc1	-7%	·	-1.3	-6	·
O=C(Nc1ccc(N2CCOCC2)cc1)c1cc2c(s1)CCCC2	-7%	-24	2.4	1	·
COc1ccccc1NS(=O)(=O)c1cccc(C(=O)N/N=C/c2ccc(NC(C)=O)cc2)c1	0%	-7	-0.6	-4	·
CCOC(=O)Nc1sc2c(c1C(=O)OCC)CCC2	-10%	6	3.5	7	-16
Cc1ccc(C)c(NC(=O)CCN2CC(C)CC(C)C2)c1 (stereo not given)	·	·	1.9	0	·
O=C(CSc1nnc(-c2ccc(F)cc2)o1)c1ccc2c(c1)OCCO2	-4%	1	-2.5	-3	-9
CCc1ccccc1NC(=O)CC(O)(C(=O)OC)C(F)(F)F (stereo not given)	-6%	4	2.4	-3	-14
CCCN(CCC)CCNC(=O)C(NS(=O)(=O)c1ccc2c(c1)CCC(=O)N2)c1ccccc1 (stereo not given)	0%	1	-2.8	-3	30
N#Cc1nc(Cc2ccccc2)oc1NCCN1CCOCC1	-5%	5	-1.1	0	-9
CC(/C=N/NC(=O)CSc1ccccn1)=C\c1ccc(C(C)C)cc1	6%	21	14	14	-21
COc1c(C)cc(C(=O)C2CCCN(C(=O)c3ccc4cc[nH]c4c3)C2)cc1C (stereo not given)	-2%	-7	0.7	-10	·
CN(C)/C=C1\C(=O)N(c2ccc(Cl)cc2)CS1(=O)=O	-3%	3	-1.9	-3	-31
CCNC(=S)N1CCN(S(=O)(=O)c2ccc(C)c(C)c2)CC1	-3%	12	-0.4	-3	·
Cc1cc(C)c(S(C)(=O)=O)c(Oc2ccccc2C)n1	-11%	-2	1.1	-2	-34
O=c1c2cc(Br)ccc2nc(-c2ccccc2)n1O	·	·	-6.4	-6	·
Cc1ccc(-n2ncc(C#N)c2/N=C/N2CCOCC2)cc1	-1%	15	0.5	-8	-11
CSC1=N/C(=C\C=C\c2cccs2)C(=O)S1	-6%	4	-9.9	-2	-88	Arbovirus inh repeat=15
COc1cccc(NC(=O)COC(=O)c2c(-c3ccccc3)noc2C)c1	-7%	-8	1.1	-6	-21
O=C(CSc1nc(Nc2ccccc2)nc(N2CCOCC2)n1)Nc1ccc([N+](=O)[O-])cc1	77%	-20	3.8	96	3
O=C(O)CN1C(=O)Nc2ccc(Br)cc2C1c1ccccc1 (stereo not given)	-1%	5	-3.1	-3	-23	Arbovirus inh repeat=7
O=C(COC(=O)c1cc[n+]([O-])cc1)Nc1c(Cl)cccc1C(F)(F)F	·	·	-3.8	4	·
O=S(=O)(c1ccc2[nH]c3c(c2c1)CCCC3)N1CCCCC1	·	·	0.1	5	·
CCn1c(COc2cccc(OC)c2)nnc1SCC(=O)NCC1CCCO1 (stereo not given)	·	·	8.2	4	·
Cn1c(=O)c2c(nc(N/N=C3\CCCc4ccccc43)n2Cc2ccc(F)cc2)n(C)c1=O	1%	3	0.6	-1	-11
O=C(OCC#CCSc1nc2ccccc2o1)c1ccco1	4.3µM*	3	4.1	?	5

Grouped by structure, the entries above containing a thiophene ring, fused or not (5)
SMILES	Mtb growth	Arbovirus inh	RecA splice inh	Mtb betalactam	YopH PTP inh	others
Cc1ccc(CNC(=O)C2CCN(S(=O)(=O)c3cccs3)CC2)cc1	·	·	-0.3	-5	·
O=C(O)CCn1c(SCc2cc(=O)n3ccccc3n2)nc2ccsc2c1=O	-10%	6	·	3	·
O=C(Nc1ccc(N2CCOCC2)cc1)c1cc2c(s1)CCCC2	-7%	-24	2.4	1	·
CCOC(=O)Nc1sc2c(c1C(=O)OCC)CCC2	-10%	6	3.5	7	-16
CSC1=N/C(=C\C=C\c2cccs2)C(=O)S1	-6%	4	-9.9	-2	-88	Arbovirus inh repeat=15

Additional results:
SMILES	Mtb growth	Arbovirus inh	RecA splice inh	Mtb betalactam	YopH PTP inh	others
NC(=O)CC(NC(=O)OCc1ccccc1)C(=O)O (stereo not given)	4%	8	0.4	-13	-38
Cc1ccc(/C=C2\C(=O)NC(=O)N(CC3CCCO3)C2=O)s1 (stereo not given)	-4%	·	-1.0	10	·
COc1cc(/C=N/NC(=S)Nc2cccc(C(=O)O)c2)ccc1O	-8%	-8	-6.1	-3	-13
Cc1cc(C)cc(-n2nnnc2SCC(=O)Nc2cccc(NC(=O)c3ccco3)c2)c1	10%	11	-0.6	56	-1
CC1(c2ccc(NC(=O)c3ccccc3F)cc2)CC1(Cl)Cl (stereo not given)	·	·	13	4	·
COc1ccccc1CCc1nnc(CCC(=O)NC(C)Cc2cccc(C)n2)o1 (stereo not given)	-8%	·	-2.5	-6	·
Cc1cccc(C)c1NC(=O)CS(=O)CC(=O)N1CCN(c2ccccc2)CC1 (stereo not given)	·	·	-2.5	1	·
CCC1C=C(c2ccccc2)C=CN=C1N(CC)CC (stereo not given)	8%	13	-1.2	-1	1
CN(C(=S)Nc1ccccc1)c1ccccc1	0%	-2	-3.1	4	-18
N#Cc1c(-c2cccs2)cc(-c2cccnc2)nc1N	-4%	-3	-4.5	-4	-26
CCNC(=S)N1CCN=C1Nc1nc(C)cc(C)n1	-1%	0	0.3	-7	·
CCOc1ccccc1NC(=O)C1CCN(C(=O)Cc2ccccc2)CC1	2%	5	-2.4	1	·
COc1cc(NC(=O)CSc2nc3ccccc3cc2C)c(C(=O)O)cc1OC	-7%	13	2.7	0	-35
C=C1CC2C=C(NC(C)=O)CC(C1)C2 (stereo not given)	-9%	0	1.5	-10	-52	Arbovirus inh repeat=4
CCN(CC)C(=O)CSc1nc2c(sc(=S)n2-c2ccccc2)c(=O)n1-c1ccc(OC)cc1OC	·	·	-57	63	·
O=C(O)c1ccccc1C(=O)NCc1ccc(F)cc1	-20%	2	-2.0	-9	-40
CC12CCC(C(=O)N(Cc3ccccc3)Cc3ccccc3)(OC1=O)C2(C)C (stereo not given)	19%	-17	14	1	-2
C=CCc1cccc2cc(C(=O)NC3CCCC3)c(=O)oc12	6%	1	1.4	3	·
CC1CC(O)C(C)CN1 (stereo not given)	-2%	·	4.0	·	·
CCOC(=O)NC(=O)c1cn(Nc2ccccc2)c(=O)[nH]c1=O	-11%	·	0.6	29	·
O=C(Nc1ccccc1)Nc1cc(Cl)cc(Cl)c1	1%	-27	2.1	66	-11
O=C(Cn1c(=O)n(CCc2c[nH]c3ccccc23)c(=O)c2cccnc21)Nc1ccccc1F	·	4	-0.5	2	-36
C=CCN1CC(C(=O)N2CCC(Cc3ccc(Cl)cc3)(C(=O)OCC)CC2)CC1=O (stereo not given)	-4%	·	0.7	6	·
COc1ccccc1C(=O)NC(C)C(c1cccs1)N1CCOCC1 (stereo not given)	-3%	5	-1.8	0	-11
COCc1cc(C)nc(SCC(=O)NCc2ccco2)c1C#N	-2%	1	-2.1	11	-44
O=C(CSc1ncn[nH]1)Nc1nc(-c2cccc([N+](=O)[O-])c2)cs1	11%	·	4.5	78	·
Cc1nnc(SCc2ccccc2)n(N)c1=O	-1%	-11	-1.0	-2	-14
CC(=O)/C(=C/c1ccc(N(C)C)cc1)C(=O)c1ccccc1	7%	-8	-7.2	2	-17
O=C(COc1ccccc1Br)c1ccc(O)cc1O	-6%	3	0.0	5	-22
CC1(C)CC(=O)C(C=NCC2CCCO2)=C(O)C1 (stereo not given)	0%	3	·	-8	-13
Cc1ccc([N+](=O)[O-])cc1NC(=O)c1ccoc1C	-3%	2	3.8	0	-26
CC(C)(Oc1ccc(Cl)cc1)C(=O)Nc1ccc2oc(=O)ccc2c1	·	·	-2.1	-5	·
CCCNc1ncccc1C(N)=O	3%	-1	0.6	0	-30
CCOC(=O)c1ccc(CNC(=O)c2cc(COc3ccccc3SC)on2)o1	·	·	-0.4	8	·
CC(C)CCSc1cc(NCCO)c([N+](=O)[O-])c2nonc12	-2%	15	9.3	21	·
COc1cc(OC)cc(C(=O)NC(=S)NCc2ccco2)c1	14%	3	1.1	-3	6
CC(CC(=O)Nc1cc([N+](=O)[O-])ccc1Cl)c1ccccc1 (stereo not given)	10%	15	0.8	-2	-33
O=C(NCc1ccc2c(c1)OCO2)C1COc2ccccc2O1 (stereo not given)	18%	-11	1.4	0	-23
CN(CC(=O)Nc1c(Cl)cccc1Cl)C(=O)c1cc(-c2cccs2)nn1-c1ccccc1	·	·	11	5	·
CS(=O)(=O)c1ccc(C(=O)Nc2ccc(N3CCOCC3)cc2)c(Cl)c1	4%	2	0.9	2	·

Quoted from above for reference:
SMILES	Mtb growth	Arbovirus inh	RecA splice inh	Mtb betalactam	YopH PTP inh	others
CCCNc1ncccc1C(N)=O	3%	-1	0.6	0	-30
CCOC(=O)c1ccc(CNC(=O)c2cc(COc3ccccc3SC)on2)o1	·	·	-0.4	8	·
CC(C)CCSc1cc(NCCO)c([N+](=O)[O-])c2nonc12	-2%	15	9.3	21	·
COc1cc(OC)cc(C(=O)NC(=S)NCc2ccco2)c1	14%	3	1.1	-3	6

Returning to the listing, repeating the 2 entries before the break.
SMILES	Mtb growth	Arbovirus inh	RecA splice inh	Mtb betalactam	YopH PTP inh	others
CN(CC(=O)Nc1c(Cl)cccc1Cl)C(=O)c1cc(-c2cccs2)nn1-c1ccccc1	·	·	11	5	·
CS(=O)(=O)c1ccc(C(=O)Nc2ccc(N3CCOCC3)cc2)c(Cl)c1	4%	2	0.9	2	·
CCc1ccc(CN(C)C(=O)c2cc(COc3cccc(C(F)(F)F)c3)on2)nc1	·	·	0.5	72	·
COc1ccc(S(=O)(=O)N2CCC(C(=O)N3CCCCCC3)CC2)cc1	0%	8	-2.4	-9	-37
N#Cc1c2n(c3c(=O)n(Cc4ccc(Cl)cc4)cnc13)CCCC2	6%	-11	-14	-1	-7	Arbovirus inh repeat=-10
Cc1cc(NC(=O)CCn2c(=O)sc3ccccc32)no1	2%	·	0.7	3	27
C=CCOC(=O)C1=C(C)NC(SCC(=O)Nc2ccc(C)c(Cl)c2)=C(C#N)C1c1ccco1 (stereo not given)	0%	-23	-0.6	-5	-41
CCn1cc(/C=C(\NC(=O)c2cc(OC)c(OC)c(OC)c2)C(=O)NCCN2CCOCC2)c2ccccc21	·	·	1.9	-2	·

Screening data (PubChem)
